Screens from PubChem.
eIF4H FP inh = human eIF4H binding inhibitors, primary screen, translation initiation inhibitor project, biochemical, uHTS, fluorescence polarization | Eukaryotic translation initiation factor 4H (Homo sapiens), Q15056 | eIF4H fluorescence polarization binding assay | inhibition, % at 35 µM | actives 0.94% (n = 290,000) | AID 2012, 2009;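 active = 50% or more with normal probe brightness, or confirmed in later tests; inconclusive = above 50% with abnormal brightness, or retests that disagree; inactive = below 50% or failed in later tests; about a fifth of its hits are not listed in these tables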;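 note: calls also rest on retests at 20 µM and on dose response follow-up; 0% = protein and probe with vehicle and 100% = probe without protein; strong numbers were not always called active; many hits fall short of the cut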
HIV Env fusion = inhibitors of HIV-1 Env-driven cell-cell fusion, primary screen, HeLa-JRFL effector, CEM21 target cells, luciferase; inhibition, % at 12.3 µM; actives 1.1% (n = 360,000);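 active = mean replicate inhibition score of at least 50 and every replicate individually at or above 50; inconclusive = only one of the two criteria met; inactive = mean below 50 and not all replicates reaching 50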;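 note: 0% = plate neutral controls and 100% = maraviroc near 300 nM; one replicate is shown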
Rce1 inh = yeast Rce1p protease inhibitors, primary screen, biochemical, fluorescence, cell-free homogeneous; yeast membranes, quenched prenylated peptide cleavage fluorescence; calls only; actives 0.27% (n = 290,000);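 active = fall in fluorescence gain of 50% or more versus controls, with final raw signal at or below 3038400; inconclusive = same 50% fall but final raw signal above 3038400; inactive = fall in fluorescence gain under 50%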;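 note: plate controls were neutral control wells for no effect and wells lacking membranes for full effect; tested at 10 µM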
CSC inhib = cancer stem cell viability inhibitors, primary screen, luminescence; inhibition, % at 7.5 µM; cancer stem cell-like cells viability; AID 2717, 2010; actives 1.1% (n = 300,000);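 active = mean at 75% or more and at least half the replicates too; inconclusive = mean and replicates disagree; tested in HMLE shEcad cells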;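 note: 0% = median of negative and 100% = median of positive control wells; the first replicate is given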
UUG fidelity = modulators of yeast start codon fidelity, primary screen, whole organism, S. cerevisiae, single point, plate reader | activity score, % at 18.7 µM | S. cerevisiae UUG-firefly luciferase reporter, luminescence/redox ratio | actives 0.13% (n = 350,000) | AID 602363, 2012;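 active = replicate mean at a twofold rise or more, about +100% in these data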;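 note: firefly luciferase made from a UUG start codon reports start codon fidelity; reporter light over untreated wells divided by growth signal over untreated wells; some hits fall short of that in this replicate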
PABP polyA inh = PABP poly(A) RNA binding inhibitors, primary screen, biochemical, fluorescence polarization, uHTS; AID 2014, 2009; Polyadenylate-binding protein 1 (Homo sapiens), P11940; inhibition, % at 35 µM; actives 1% (n = 290,000);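 active = 50% or more with normal probe brightness, or confirmed in later tests; inconclusive = above 50% with abnormal brightness, or retests that disagree; inactive = below 50% or failed in later tests; about a fifth of its hits are not listed in these tables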;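 note: calls also rest on retests at 20 µM and on dose response follow-up; controls were probe without protein and protein plus probe with vehicle; some compounds called inactive have numbers as strong as hits; many hits fall short of the cut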
Target sequence (P11940 whole entry, looked up): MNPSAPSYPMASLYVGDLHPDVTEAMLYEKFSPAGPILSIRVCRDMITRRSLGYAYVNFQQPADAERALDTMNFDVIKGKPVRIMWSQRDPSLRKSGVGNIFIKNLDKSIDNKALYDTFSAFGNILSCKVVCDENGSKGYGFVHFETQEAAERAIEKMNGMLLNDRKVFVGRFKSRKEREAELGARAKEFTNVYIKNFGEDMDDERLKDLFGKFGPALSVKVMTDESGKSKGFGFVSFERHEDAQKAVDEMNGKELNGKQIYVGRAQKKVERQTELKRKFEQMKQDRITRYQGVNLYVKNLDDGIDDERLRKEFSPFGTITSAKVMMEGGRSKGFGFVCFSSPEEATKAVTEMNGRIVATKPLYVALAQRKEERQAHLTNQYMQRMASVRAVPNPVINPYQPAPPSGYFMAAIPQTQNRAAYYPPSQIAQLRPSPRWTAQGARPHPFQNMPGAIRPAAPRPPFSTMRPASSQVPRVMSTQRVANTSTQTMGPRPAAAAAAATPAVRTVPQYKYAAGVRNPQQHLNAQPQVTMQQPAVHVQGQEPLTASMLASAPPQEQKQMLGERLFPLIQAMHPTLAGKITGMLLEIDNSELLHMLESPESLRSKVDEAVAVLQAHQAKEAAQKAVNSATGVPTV
MT1-MMP act inh = blockers of MT1-MMP proenzyme processing, primary screen, HT1080 RFP-PRO-GFP cells, GFP/RFP fluorescence; Matrix metalloproteinase-14 (Homo sapiens), P50281; GFP/RFP ratio fluorescence, overnight; percent of plate control window, DMSO zero; GFP/RFP ratio change, % at 20 µM; actives 0.061% (n = 360,000);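 active = GFP/RFP ratio change of at least 30% with cell ATP level not reduced by more than half and red fluorescence within 50% of control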; note: strong numbers were not always called active
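Assay system: HT1080 cells carrying an RFP-PRO-GFP reporter | Dosing: Single dose of 20 µM compound, 1% DMSO final | Incubation: Cells overnight before dosing, compound overnight, 37 °C, 5% CO2 | Evaluation: GFP/RFP fluorescence ratio | Control set: DMSO and RFP-L50D-GFP cell wells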
MT1-MMP act inh RFP = second read-out of MT1-MMP act inh, no call of its own (marks repeat the call); RFP signal change, %; measured here: RFP expression control read;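 0 = vehicle wells; hits needed this value within 50% of zero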
Numbers without * were called inactive; i = inactive; ? = inconclusive; / = no result given; & = joins results of further samples; [ ] = remark or other dose.

Molecule	eIF4H FP inh	HIV Env fusion	Rce1 inh	CSC inhib	UUG fidelity	PABP polyA inh	MT1-MMP act inh	MT1-MMP act inh RFP
COc1ccc(Cl)cc1NC(=O)c1cc(-c2cc(C)ccc2O)n[nH]1	-2	0	i	11	-23	-2	9	5
Nc1cnn(Cc2ccc(F)cc2)c1	0	-7	i	-13	-14	-1	-1	0
COc1ccc(NC(=O)CC2C(=O)NCCN2C(=O)c2ccccc2)cc1 (configuration not stated)	-11	6	i	0	2	-2	-4	2
CCc1ccc(OCC(=O)Nc2ncn[nH]2)cc1	-4	-24[16.7 µM]	i	15	-4&-21	12	1	-1
Cc1ccc(CNC(=O)c2ccc(CS(=O)Cc3ccccc3Cl)o2)cc1 (configuration not stated)	2	10	i	-2	5	0	2	0
O=C(c1cccs1)N1C[C@@H](n2cc(-c3ccc(F)cc3)nn2)[C@H](O)C[C@@H]1c1ccccc1	/	-56	/	/	5	/	1	-1
CSc1nncc(/C(C)=N\Nc2cccc(C)c2)n1	-2	/	i	19	-13	12	-1	2
CCP(=O)(CC)c1cccc(N)c1	-3	/	i	-5	-12	-5	5	1
COc1ccc(-c2nc(N3CCCCCC3)sc2C(=O)c2ccccc2)cc1	-8	/	i	50	-14	-24	0	-4
CCOC(=O)c1c(N=CN(C)C)c(C#N)n2c1CCC2	-7	/	i	-8	-9	-1	3	1
CC1Cc2ccccc2N1C(=S)NC1CCCC1 (configuration not stated)	-6	5	i	-3	-17	5	-1	2
CCNc1c(NS(=O)(=O)c2ccc(C3CCCCC3)cc2)c(=O)oc2ccccc12	5	24	i	/	-3	3	3	-3
CCC1CCCCN1C(=O)CSc1nc2ncccc2[nH]1 (configuration not stated)	/	-6	i	-15	-5	/	2	4
O=C(/C=C/c1ccc(Cl)cc1)N1CCN(c2c(Cl)cccc2[N+](=O)[O-])CC1	-2	30	i	6	-13	-4	-3	-8
CCCC(C)C(=O)Nc1cc([N+](=O)[O-])ccc1Cl (configuration not stated)	6	6	i	-6	/	6	-2	-1
C[C@H](CO)N1C[C@H](C)[C@@H](CN(C)Cc2ccc(-c3ccccc3)cc2)OCc2cnnn2CCCC1=O	/	14	/	/	-9&-4	/	2	3
C[C@H](CO)N1C[C@H](C)[C@@H](CN(C)C(=O)NC2CCCCC2)Oc2ccc(NS(=O)(=O)c3ccccc3)cc2C1=O	/	-12	/	-28	6&-4	/	1	6
COC(=O)C1C(O)=C(C=NCc2ccccc2)C(=O)CC1(C)C (configuration not stated)	-11	?	/	-4	7	0	-4	0
O=C(Nc1cc(Cl)ccc1N1CCOCC1)c1ccc2c(c1)OCO2	/	-122	/	/	-10	/	2	6
CCN(CC)S(=O)(=O)c1cccc(-c2nnc(SCC(=O)c3ccc(Cl)s3)n2C)c1	-5	-186	i	12	-4	-5	-9	-4
Cc1nn2c(N)c(C#N)cnc2c1-c1ccc(Cl)cc1	-11	/	i	7	-20	7	1	0
O=C(COc1ccc(F)cc1Cl)Nc1ccc(N2CCOCC2)cc1N1CCOCC1	/	16	i	-15	21	/	14	-4
COc1ccc(OC)c(S(=O)(=O)NCC2CCCO2)c1 (configuration not stated)	0	/	i	-4	-15	-10	0	0
Cn1cnnc1SCC(=O)NC1CCCN(Cc2ccc(Cl)cc2)C1 (configuration not stated)	-7	2	i	-1	-9	0	1	3
CCCc1cc(=O)[nH]c(SCC(=O)Nc2ccc([N+](=O)[O-])cc2C#N)n1	-8	4	i	14	-23	-2	10	-1

More entries:
Molecule	eIF4H FP inh	HIV Env fusion	Rce1 inh	CSC inhib	UUG fidelity	PABP polyA inh	MT1-MMP act inh	MT1-MMP act inh RFP
CCOC(=O)c1ccc(NC(=O)CSCc2ccco2)cc1	11	-44	i	2	/	3	-18	-7
N#Cc1c(-c2ccccc2)c(-c2ccccc2)nn(CC(=O)NNC(=O)Nc2ccc(Cl)c(Cl)c2)c1=O	-3	/	i	105*	-27	-2	-6	-20
O=C(NCc1cn(-c2ccccc2)nc1-c1ccccc1)c1cc([N+](=O)[O-])cc([N+](=O)[O-])c1	-5	/	i	-4	3	0	7	-4
O=C(O)CCC(=O)N1CCN(c2ccc(C(=O)c3ccc(F)cc3)cc2)CC1	-7	/	i	15	-16	2	-7	-1
C=CCSc1nc2[nH]ncc2c(=O)[nH]1	3	-16	i	-7	/	-4	-4	1
O=C(COc1ccc(Cl)cc1Cl)N1CCN(C(=O)c2ccco2)CC1	-1	-7	i	-10	3	7	-2	0
O=C(Nc1nc2ccccc2s1)C1CC(=O)N(c2ccc(F)cc2)C1 (configuration not stated)	4	20	i	3	-15	-2	-7	1
O=C(NC1C2CC3CC(C2)CC1C3)c1ccc2c(c1)OCO2 (configuration not stated)	-5	-2	i	28	-6	6	-3	-3
O=C(CSc1nnc(-c2ccccn2)n1Cc1ccco1)c1ccc(Cl)cc1	4	6	i	-3	-14	-4	-4	0
O=C(N/N=C/c1ccc(OC(=O)c2cccs2)cc1)c1ccc(F)cc1	-1	-23	i	-5	7	-1	6	6
CC(=O)N1CCOc2ccc(S(=O)(=O)NCCc3ccccc3)cc21	1	5	i	-20	-3	1	-8	-5
O=C(CSc1nnc(Cc2ccccc2)o1)N1CCc2ccccc21	2	/	i	-8	-13	3	1	1
CN(C)/C=N/S(=O)(=O)c1ccc(Cl)cc1	6	-4	i	-3	-1	31	1	4
O=C(NCCN1CCN(S(=O)(=O)c2ccccc2)CC1)C(=O)Nc1ccc(F)cc1	-6	-8	i	/	-14	7	-5	-1
O=C(c1ccccc1)N1CCC2(CC1)NCCc1[nH]cnc12	7	-11	i	1	-6	-15	-10	-1
COc1ccc(N2CCN(C(=O)CCc3ccccc3OC)CC2)cc1	8	2	i	-11	6	-6	3	1
N#Cc1cccnc1N1CCN(C(=O)c2[nH]c(C(F)(F)F)nc2-c2ccccc2)CC1	/	18	/	/	-1	/	1	4
CC(=O)Nc1cnc(-c2ccccc2C(F)(F)F)cn1	/	-1	/	/	-12	/	2	3
Cc1ccc(S(=O)(=O)N2CCC(NC(=O)c3cccc(F)c3)CC2)cc1	-14	9	i	-1	-13	2	12	4
CC1CCN(CCCNC(=O)c2cc3c(=O)n(C)c4ccccc4c3n2C)CC1	-2	-25	i	20	-12	9	7	6
Cc1nnc(Nc2ccc(C(=O)O)cc2)[nH]c1=O	2	13	i	1	/	1	3	5
Cc1cc(C)cc(NC(=O)CN(c2ccc(F)cc2)S(C)(=O)=O)c1	-8	3	i	-10	/	-3	-2	0
Cc1c(NC(=O)Cn2cc([N+](=O)[O-])cn2)c(=O)n(-c2ccccc2)n1C	1	-9	i	-14	/	14	0	4
Cc1ccc2c(c1)C(c1ccccc1)N(C(=O)CC(C)C)CC(=O)N2 (configuration not stated)	-7	7	i	6	-7	-6	-2	1
CCN(CCCNC(=O)C1CCN(S(=O)(=O)CC)CC1)c1ccccc1	-4	/	i	-4	-16	2	5	3

Single records (already shown). Order of values: eIF4H FP inh | HIV Env fusion | Rce1 inh | CSC inhib | UUG fidelity | PABP polyA inh | MT1-MMP act inh | MT1-MMP act inh RFP
CC(=O)Nc1cnc(-c2ccccc2C(F)(F)F)cn1 in the list: / | -1 | / | / | -12 | / | 2 | 3
Cc1c(NC(=O)Cn2cc([N+](=O)[O-])cn2)c(=O)n(-c2ccccc2)n1C in the list: 1 | -9 | i | -14 | / | 14 | 0 | 4
COc1ccc(N2CCN(C(=O)CCc3ccccc3OC)CC2)cc1 in the list: 8 | 2 | i | -11 | 6 | -6 | 3 | 1
CC(=O)N1CCOc2ccc(S(=O)(=O)NCCc3ccccc3)cc21 in the list: 1 | 5 | i | -20 | -3 | 1 | -8 | -5
O=C(CSc1nnc(Cc2ccccc2)o1)N1CCc2ccccc21 in the list: 2 | / | i | -8 | -13 | 3 | 1 | 1

Remaining list, next part:
Molecule	eIF4H FP inh	HIV Env fusion	Rce1 inh	CSC inhib	UUG fidelity	PABP polyA inh	MT1-MMP act inh	MT1-MMP act inh RFP
COc1cc(C=NN2CCCCC2)cc(OC)c1OC	/	-16	/	/	-15	/	4	4
CCC1CN(C(=O)NCc2ccc(C)cc2)c2cc(C)ccc2O1 (configuration not stated)	5	5	i	-1	-1	1	0	-7
O=C(COC(=O)CCc1ccc(S(=O)(=O)N2CCOCC2)cc1)NC1CCCC1	-9	-6	i	-19	/	-9	7	3
Cc1ccc(S(=O)(=O)N2[C@H](C(C)C)[C@H]3[C@H]4C(=O)N(c5ccccc5)C(=O)[C@H]4CC(=O)[C@H]3[C@@H]2c2ccccc2)cc1	/	59*	/	/	-25	/	3	1
Cc1n[nH]c(C)c1S(=O)(=O)N1CCCC(C(=O)NCc2cccs2)C1 (configuration not stated)	-3	4	i	-22	-21	1	3	4
CCN(CC)S(=O)(=O)c1ccc(OC(C)C)c(N)c1	-3	23	i	-6	/	-5	1	3
COc1cccc(C(=O)Nc2ccc(NC(=O)c3ccco3)nc2)c1	-3	/	/	17	-19	-6	9	7
Cc1nn(Cc2ccc(Cl)cc2Cl)c(Cl)c1/C=C/C(=O)OCC(=O)NCC(F)(F)F	3	/	i	1	-12	-5	-1	-3
Cc1noc(C)c1CSCC(=O)Nc1nc2ccc(Oc3ccccc3)cc2s1	-14	/	i	48	-7	-12	-2	-8
CN(Cc1nc(Cc2ccccc2F)no1)CC1(N2CCOCC2)CCCCC1	-9	1	i	-6	11	-7	0	1

Only part of the results is shown; count on the stated rates, not on these rows.
